Screening results: PubChem, National Center for Advancing Translational Sciences (NCATS)
PINK1 modulator: modulators of PINK1 expression. PINK1 immunofluorescence, high-content cytometry, 24 h. actives 0.2% (n = 410,000). AID 624263. Potency, µM (highest dose often 76.6 µM), for inactives: at the top dose activation (PINK1 increase), most hits filed as activators; active = well fitted activation curve with a large enough effect; inconclusive = small, poorly fitted or top-dose-only effect; inactive = flat fitted curve, though single readings scatter; cell line not stated here;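 also: potency is read from the fitted curve at half-maximal effect; % of control where 0% means no effect; nearly all actives have a fitted effect of over 65% in size; a mitochondrial uncoupler was the plate control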
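Compound titrations (5 concentrations, 24 h) on a stable cell line; DMSO and CCCP controls. Endpoint: fixed-cell PINK1 immunofluorescence with mitochondrial, cell and nuclear markers, scanned by microplate cytometer.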
gsp agonist: activates gsp, the McCune-Albright syndrome mutation. actives 0.13% (n = 340,000). Potency, µM (top dose mostly 76.9 µM), for the others: top-dose activation (cAMP increase), most hits filed as activators. gsp mutant cells, cAMP HTRF, 30 min; control for the full effect not named in the record; active = well fitted activation curve with a large enough effect; inconclusive = small, poorly fitted or top-dose-only effect, or another doubt; inactive = no such curve, though single readings can be large or run the other way; cell line not stated here;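 also: phosphodiesterase inhibitor Ro 20-1724 added with compounds to block cAMP breakdown; potency is read from the fitted curve at half-maximal effect; nearly all actives have a fitted effect of over 60% in size; about a fifth of the inactives were tested at one dose only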
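Cells stably selected in G418 were plated at 2000/well, grown 16-24 hr, then given compounds in DMSO with the PDE inhibitor […] (300 uM solution added) for 30 min at 37C; cAMP was read by HTRF.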
Menin-MLL FL inh: menin-MLL binding inhibition, fluorescein peptide | Fluorescence polarization, fluorescein-MLL peptide displacement from menin | FP activity change, % at 61.4 µM | 290,000 tested, under 10 active | AID 1766; inconclusive = falling polarisation curve, or a change in total fluorescence; inactive = total fluorescence flat and polarisation flat or rising; no compound was filed as active; the % refers to the polarisation; negative = inhibition;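 also: % of control where 0% means no effect; inhibitors lower the polarisation; unlabelled MLL peptide was the positive control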
gsp antag: antagonists of gsp mutant (McCune-Albright syndrome). gsp-mutant cells, cAMP HTRF, 30 min; control for the full effect not named in the record. Potency, µM (titrated, usually from 76.9 µM), for the others: at the top dose activity change, negative = inhibition, most hits filed as inhibitors. actives 0.4% (n = 340,000). AID 624288; active = falling curve of any shape with a large fitted effect; inconclusive = falling curve, mostly with a smaller effect; inactive = flat or rising curve; cell line not stated here;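 also: intracellular cAMP measured with PDE inhibitor Ro 20-1724 present during compound exposure; potency is read from the fitted curve at half-maximal effect; % is scaled to controls: 0 for no effect and ±100 for the full control effect; nearly all actives have a fitted effect of over 65% in size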
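Cells in G418 medium, seeded 16-24 h, 37C; buffer exchange to DPBS + 1 mM CaCl2, 0.5 mM MgCl2, 0.05% BSA; cpds in DMSO + […] (300 uM stock), 30 min 37C; HTRF cAMP detection.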
ClpP mod: qHTS Assay for Activators of ClpP; ATP-dependent Clp protease proteolytic subunit (Bacillus subtilis (strain 168)), P80244; purified B. subtilis ClpP, FRET peptide cleavage, 20 min; Potency, µM (titrated, usually from 57.5 µM), without a hit: at the highest dose activity change, negative = active; actives 1.9% (n = 340,000); AID 651965, 2013; active = well fitted falling curve with a large enough effect; inconclusive = small, poorly fitted or top-dose-only effect; inactive = no such curve, though single readings can be large or run the other way; also: potency is read from the fitted curve at half-maximal effect; the source files actives as falling curves though it sought activators and does not explain the sign; nearly all actives have a fitted effect of over 65% in size; many hits overshoot -100%
Target sequence (P80244 whole entry, looked up): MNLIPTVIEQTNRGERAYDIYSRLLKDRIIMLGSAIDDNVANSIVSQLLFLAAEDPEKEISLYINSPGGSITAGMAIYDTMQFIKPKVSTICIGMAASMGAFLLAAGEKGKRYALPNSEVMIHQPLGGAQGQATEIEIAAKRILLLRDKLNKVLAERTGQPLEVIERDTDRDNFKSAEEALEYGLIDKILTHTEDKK
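ClpP 10 microg/mL final, pH 8 Tris/KCl buffer with BSA, glycerol, Tween-20; compound pinned in; FRET-FV substrate; RT 20 min; Ex320/Em430; ΔFRET vs ADEP 5.8 microM, DMSO, no enzyme.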
Sfp PPTase inh: Sfp phosphopantetheinyl transferase inhibition; Biochemical Sfp PPTase activity, qHTS; AID 1490; actives 3.5% (n = 310,000); Potency, µM, inactives show max response, negative = inhibition, hits mostly inhibitors; active = well fitted inhibition curve with a large enough effect; inconclusive = small, poorly fitted or top-dose-only effect, or another doubt; inactive = no such curve, though single readings can be large or run the other way;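 also: the enzyme is Sfp with the accession as filed and its product quenches rhodamine fluorescence; potency is read from the fitted curve at half-maximal effect; 0% = enzyme reaction without inhibitor and -100% = no enzyme wells; top concentration of the series not given in the record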
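Fluorescence-quenching assay with 15 nM Sfp, 5 uM rhodamine-CoA and 12.5 uM BHQ-2-labelled ybbR peptide in pH 7.6 Hepes/MgCl2 buffer. Enzyme was pre-incubated with compound for 15 min at room temperature. Rate was taken from the 30-min fluorescence change (525/598 nm).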
D2 agonist: agonists of human D2 dopamine receptor (beta-arrestin); actives 0.084% (n = 360,000); DiscoveRx PathHunter D2 beta-arrestin, luminescence, 90 min; 100% = 57 uM dopamine signal; activation, % (no concentration beside the values); AID 624465; P14416; in the data active = activation above about 40%; inconclusive = about 15% to 40%; inactive = below about 15%; also: compound concentration not given in the record; the text of the record calls up to 30% inactive
Target sequence (P14416 whole entry, looked up): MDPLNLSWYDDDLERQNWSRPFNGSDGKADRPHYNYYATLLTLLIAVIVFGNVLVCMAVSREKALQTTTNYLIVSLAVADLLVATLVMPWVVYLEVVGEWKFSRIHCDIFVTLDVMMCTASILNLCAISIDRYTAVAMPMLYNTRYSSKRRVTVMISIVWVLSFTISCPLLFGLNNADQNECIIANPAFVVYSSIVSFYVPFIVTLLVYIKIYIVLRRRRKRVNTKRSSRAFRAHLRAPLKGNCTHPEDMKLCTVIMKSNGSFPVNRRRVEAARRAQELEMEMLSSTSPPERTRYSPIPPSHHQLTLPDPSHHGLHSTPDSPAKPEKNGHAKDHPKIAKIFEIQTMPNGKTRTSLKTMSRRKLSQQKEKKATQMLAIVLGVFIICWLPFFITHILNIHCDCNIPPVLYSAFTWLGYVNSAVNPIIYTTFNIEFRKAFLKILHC
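Agonist mode: compounds alone added to overnight-plated D2 PathHunter cells for 90 min at 37 C, with 57 uM final dopamine (EC100) defining full response. Beta-arrestin recruitment detected by chemiluminescent reagent, read after 1 h at ambient temperature.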
An asterisk follows results filed as active; u = inconclusive; x = no result given; & = joins results of further samples; [ ] = remark or other dose.

entry	structure	PINK1 modulator	gsp agonist	Menin-MLL FL inh	gsp antag	ClpP mod	Sfp PPTase inh	D2 agonist
1	CC1CCN(S(=O)(=O)c2ccc3c(c2)N(CC(=O)NCCCOC(C)C)C(=O)CS3)CC1	-0.4%	21%	x	-6%	0.1%	7%	1.8
2	CC(C)CCNC(=O)NC(=O)CSc1ncccn1	0.5%	-14%	1.4	4%	0.1%	6%	-0.7
3	O=C(CCC(=O)Nc1ccc(F)cc1)N/N=C/c1cccnc1	1.7%	-21%	-1.2	0%	x	25%	2.9
4	O=C(Cc1c(O)c2ccccc2oc1=O)c1ccc(C(F)(F)F)cc1	-1.3%	5%[15.4 µM]	u	6%	-1.5%	5%	-4.1
5	Cc1cc(C)nc(NS(=O)(=O)c2ccc(NC(=O)C3(c4ccc([N+](=O)[O-])cc4)CCCC3)cc2)n1	-1.1%	-28%	2.5	-11%	-5.7%	3%	-0.5
6	CC(C)CC(=O)Nc1cccc(-c2cn3ccsc3n2)c1	-0.6%	-30%[inhibitor]	3.8	7%	-0.4%	7%	1.4
7	CCCCN(C(=O)c1ccc([N+](=O)[O-])s1)c1c(N)n(CC(C)C)c(=O)[nH]c1=O	3.0%	6%	x	16%	-0.9%	x	8.0
8	O=C(Cc1csc(N2CCOCC2)n1)N/N=C/c1ccc(O)c(O)c1O	-1.4%	-17%[15.4 µM]	6.9	-7%	x	10µM*	6.8
9	O=C(O)Cc1ccc2c(c1)Cc1cccnc1O2	0.1%	u	x	x	-5.2%	x	-0.9
10	O=C(NNS(=O)(=O)c1ccccc1[N+](=O)[O-])c1ccc(F)cc1	3.6%	-9%	-2.9	-17%	-2.5%	5%	2.1
11	Cc1ccc(Cn2c(=O)c3ccccc3n3c(SCC(=O)N4CCCCC4C)nnc23)cc1 (stereo unspecified)	7.4%[38.3 µM]	-27%	-1.4	3%	0.3%	-9%	0.0
12	CCCc1cc(=O)[nH]c2nnc(SCC(=O)NCc3ccc4c(c3)OCO4)n12	0.1%	-9%	x	11%	-12%	x	-1.2
13	CC(C)NC(=O)N1CC(c2ccccc2)C(c2ccc(Cl)cc2)=N1 (stereo unspecified)	10%	0%	1.3	u	4.3%	-12%	-6.2
14	NC(=O)c1ccc(Oc2ccc(C(N)=O)cc2)cc1	-1.1%	-12%[15.4 µM]	1.8	4%	x	14%	-1.3
15	COc1cc2c(cc1NC(=O)C1CCCO1)oc1ccccc12 (stereo unspecified)	2.6%[38.3 µM]	-7%	-1.7	u	u	u	-2.1
16	CCOc1cc(NC(=S)NCc2ccco2)c(OCC)cc1NC(=O)CC(C)C	-0.6%	15%	-1.7	9%	-1.6%	13%	-0.8
17	Cc1ccc(-n2c(-c3cc(-c4ccco4)[nH]n3)n[nH]c2=S)c(Br)c1	-2.6%	8%[15.4 µM]	20	-13%	-1.8%	50µM*	1.6
18	N#Cc1c(C(F)(F)F)cc(-c2ccc(F)cc2)[nH]c1=O	2.1%	13%[15.4 µM]	8.7	-12%	x	-13%	-2.3
19	O=C(O)c1ccc(Cl)c(S(=O)(=O)NC(Cc2c[nH]c3ccccc23)C(=O)O)c1 (stereo unspecified)	-0.7%	u	-0.2	6%	-2.1%	5%	0.5
20	CC(C)C(C(=O)Nc1nccs1)c1ccc(Cl)cc1 (stereo unspecified)	4.3%	-4%[15.4 µM]	2.0	12%	x	15%	-0.8
21	CC1(c2nnc(-c3ccc(F)cc3)o2)CC(c2c(Cl)cccc2Cl)=NO1 (stereo unspecified)	0.1%	x	-0.5	-12%	0.5%	2%	-1.5
22	COc1ccc(-n2c(=O)c(-c3ccccc3)nc3cnc(N4CCOCC4)nc32)cc1	0.4%	x	-0.1	x	x	28%	x
23	Cc1ccc(S(=O)(=O)NC(=O)COc2ccccc2C(N)=O)cc1	22%[38.3 µM]	12%	0.2	9%	-1.0%	19%	-1.9
24	Cc1ccccc1-c1nc(N(C)C)c2ccccc2n1	2.9%	x	0.0	x	x	17%	x

Already shown: an excerpt of the list.
entry	structure	PINK1 modulator	gsp agonist	Menin-MLL FL inh	gsp antag	ClpP mod	Sfp PPTase inh	D2 agonist
23	Cc1ccc(S(=O)(=O)NC(=O)COc2ccccc2C(N)=O)cc1	22%[38.3 µM]	12%	0.2	9%	-1.0%	19%	-1.9
24	Cc1ccccc1-c1nc(N(C)C)c2ccccc2n1	2.9%	x	0.0	x	x	17%	x

2 compounds drawn at random from the list so far, as already listed:
entry	structure	PINK1 modulator	gsp agonist	Menin-MLL FL inh	gsp antag	ClpP mod	Sfp PPTase inh	D2 agonist
20	CC(C)C(C(=O)Nc1nccs1)c1ccc(Cl)cc1 (stereo unspecified)	4.3%	-4%[15.4 µM]	2.0	12%	x	15%	-0.8
9	O=C(O)Cc1ccc2c(c1)Cc1cccnc1O2	0.1%	u	x	x	-5.2%	x	-0.9

Sfp PPTase inh, what is marked active above.
#	SMILES	PINK1 modulator	gsp agonist	Menin-MLL FL inh	Sfp PPTase inh	D2 agonist
8	O=C(Cc1csc(N2CCOCC2)n1)N/N=C/c1ccc(O)c(O)c1O	-1.4%	-17%[15.4 µM]	6.9	10µM*	6.8
17	Cc1ccc(-n2c(-c3cc(-c4ccco4)[nH]n3)n[nH]c2=S)c(Br)c1	-2.6%	8%[15.4 µM]	20	50µM*	1.6

New compounds follow.
entry	structure	PINK1 modulator	gsp agonist	Menin-MLL FL inh	gsp antag	ClpP mod	Sfp PPTase inh	D2 agonist
25	Cc1cccc2cc(/C=N/NC(=O)[C@H]3C[C@@H]3c3ccccc3)c(Cl)nc12	2.2%	-10%[15.4 µM]	1.7	-14%	x	13%	-0.7
26	COCCCNC(=O)c1ccc2nc(Cc3ccc(OC)cc3)oc2c1	1.0%&2.3%	-15%	5.8	-10%	-2.4%	11%	3.5
27	COc1cccc(-c2cnc(C(O)c3cc(C)c(OC)c(C)c3)[nH]2)c1 (stereo unspecified)	4.3%	x	x	x	-3.0%	x	-2.3
28	Cc1ccc(NC(=O)C2CCCN(S(=O)(=O)c3c(C)noc3C)C2)nc1 (stereo unspecified)	-0.7%	0%	0.4	-23%	u	13%	-3.6
29	CN(CC(=O)NC1CCN(Cc2ccccc2)CC1)S(=O)(=O)c1ccc(Br)s1	1.8%	4%[15.4 µM]	-14	5%	-3.5%	7%	-6.1
30	COc1ccccc1N(CC(=O)NCc1ccc(F)cc1)C(=O)CCC(=O)Nc1nccs1	0.1%	26%	-7.6	-7%	x	1%	0.2
31	COc1ccc(NC(=O)c2cnc(SCC(=O)NCCc3ccccc3)n(C)c2=O)cc1	11%	0%	x	21%	2.8%	x	-4.7
32	COCCCC1CCN(C(=O)CCc2nnc(CCCCc3ccccc3)o2)CC1	-1.5%	-47%	4.3	-31%	-3.0%	14%	-3.7
33	COC(=O)CC/C(O)=C1\C(=O)CC(C)(C)CC1=NCc1nc2ccccc2[nH]1	1.7%	15%[15.4 µM]	-0.4	1%	-0.1%	15%	-1.3
34	COc1ccc(CNS(=O)(=O)CCNC(=O)c2ccc3c(c2)OCO3)cc1	-0.7%	17%[15.4 µM]	x	4%	x	x	-7.3
35	O=C(O)/C=C/c1ccc([N+](=O)[O-])o1	0.5%	4%	-4.8	4%	x	12%	14
36	CCS(=O)(=O)NCCc1csc(-c2ccc(OC)c(OC)c2)n1	3.0%	2%	-1.1	6%	4.2%	3%	-2.9

Values by screen from above.
Sfp PPTase inh, entries 25–35 → 13%, 11%, x, 13%, 7%, 1%, x, 14%, 15%, x, 12%

The list goes on:
entry	structure	PINK1 modulator	gsp agonist	Menin-MLL FL inh	gsp antag	ClpP mod	Sfp PPTase inh	D2 agonist
37	CCc1ccccc1NC(=S)N(Cc1ccco1)C(C)c1cccs1 (stereo unspecified)	0.9%	0%	-0.3	2%	1.6%	8%	-2.8
38	Cc1cccc(C)c1N(CC(=O)Nc1cccc(N(C)S(C)(=O)=O)c1)S(C)(=O)=O	-1.4%	u	1.1	-4%	0.6%	6%	-1.9
39	COc1ccc(NS(=O)(=O)c2cc(NC(=O)/C=C/c3cccs3)ccc2N2CCOCC2)cc1	6.5%	-2%	4.6	-2%	28µM*	12%	0.5
40	O=C(O)c1ccc(-n2c(-c3ccccc3)n[nH]c2=S)cc1	-2.3%[38.3 µM]	8%	5.6	9%	-3.0%	79µM*	-0.4
41	O=C(Cn1cnc2ccccc2c1=O)N1CCN(S(=O)(=O)c2ccc(F)cc2)CC1	2.4%	-14%	x	-6%	-2.2%	x	-2.7
42	CC(=O)Nc1ccc(C(=O)N/N=C/c2ccncc2)cc1	0.7%	23%[15.4 µM]	-4.6	1%	x	6%	-16
43	N#C/C(=C\c1ccc(-c2cccc(C(F)(F)F)c2)o1)C(=O)Nn1cnnc1	-0.7%	-2%[15.4 µM]	8.9	0%	-5.9%	19%	-1.6
44	Cc1ccc2c(c1)C1CN(C)CCC1N2C(=O)c1cccc(S(=O)(=O)N2CC(C)CC(C)C2)c1 (stereo unspecified)	1.0%	12%[15.4 µM]	0.9	-2%	-4.8%	-12%	-0.9
45	COc1ccc(C2(C(=O)NCCCN(C)C)CCOCC2)cc1	0.6%	11%	-3.1	4%	-2.3%	10%	-5.7
46	CCCC(c1nnnn1C1CCCC1)N1CCN(c2ccccc2F)CC1 (stereo unspecified)	1.1%	11%	3.9	3%	1.6%	6%	-3.9
47	CCCC(=O)Nc1cccc(NC(=O)Cc2ccc(Cl)cc2)c1	3.5%	x	x	x	0.6%	x	-3.6
48	CCOC(=O)c1c(NC(=O)COc2ccccc2OCC)sc2c1CC(C)(C)NC2(C)C	-2.3%	u	x	-7%	-9.4%	x	-1.5
49	O=C(COC(=O)C1CSC2(c3ccc(F)cc3)CCC(=O)N12)NC(=O)NC1CCCC1 (stereo unspecified)	0.8%	4%[15.4 µM]	-5.2	x	x	-28%	2.1
